PABP polyA inh: PABP-poly(A) binding inhibition; P11940; PABP-poly(A) RNA binding, fluorescence polarization; inhibition, % at 35 µM; 1% of 290,000 active;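 active = 50% or more with normal probe brightness, or confirmed in later tests; inconclusive = above 50% with abnormal brightness, or retests that disagree; inactive = below 50% or failed in later tests; about a fifth of its hits are not listed in these tables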;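 also: calls also rest on retests at 20 µM and on dose response follow-up; controls were probe without protein and protein plus probe with vehicle; some compounds called inactive have numbers as strong as hits; many hits fall short of the cut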
CSC inhib: cancer stem cell inhibition | cancer stem cell-like cells viability, luminescence | inhibition, % at 7.5 µM | 1.1% of 300,000 active | AID 2717;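 active = mean at 75% or more and at least half the replicates too; inconclusive = mean and replicates disagree; tested in HMLE shEcad cells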;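 also: 0% = median of negative and 100% = median of positive control wells; the first replicate is given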
HIV Env fusion: inhibitors of HIV Env-mediated cell fusion; 1.1% of 360,000 active; HeLa-JRFL Env/CEM21 cell fusion, luciferase; AID 651610; inhibition, % at 12.3 µM;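 active = mean replicate inhibition score of at least 50 and every replicate individually at or above 50; inconclusive = only one of the two criteria met; inactive = mean below 50 and not all replicates reaching 50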;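 also: 0% = plate neutral controls and 100% = maraviroc near 300 nM; one replicate is shown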
MT1-MMP act inh: inhibitors of human MT1-MMP activation; HT1080 RFP-PRO-GFP cells, GFP/RFP ratio fluorescence, overnight; percent of plate control window, DMSO zero; GFP/RFP ratio change, % at 20 µM; 0.061% of 360,000 active; AID 651647;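 active = GFP/RFP ratio change of at least 30% with cell ATP level not reduced by more than half and red fluorescence within 50% of control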; also: strong numbers were not always called active
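Assay system: HT1080 RFP-PRO-GFP cells | Dosing: 20 µM single dose, 1% DMSO | Incubation: Cells overnight before dosing, compound overnight, 37 °C, 5% CO2 | Evaluation: GFP/RFP fluorescence ratio | Control set: DMSO-only wells and HT1080 RFP-L50D-GFP cell wells as references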
Yeast UUG start: yeast start codon fidelity modulation. S. cerevisiae UUG-firefly luciferase reporter, luminescence/redox ratio. 0.13% of 350,000 active. activity score, % at 18.7 µM;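 active = replicate mean at a twofold rise or more, about +100% in these data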;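 also: firefly luciferase made from a UUG start codon reports start codon fidelity; reporter light over untreated wells divided by growth signal over untreated wells; some hits fall short of that in this replicate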
eIF4H inh: inhibitors of RNA binding by human eIF4H | AID 2012 | eIF4H fluorescence polarization binding assay | inhibition, % at 35 µM | Q15056 | 0.94% of 290,000 active;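 active = 50% or more with normal probe brightness, or confirmed in later tests; inconclusive = above 50% with abnormal brightness, or retests that disagree; inactive = below 50% or failed in later tests; about a fifth of its hits are not listed in these tables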;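 also: calls also rest on retests at 20 µM and on dose response follow-up; 0% = protein and probe with vehicle and 100% = probe without protein; strong numbers were not always called active; many hits fall short of the cut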
Rce1 inh: inhibitors of yeast Ras-converting enzyme; yeast membranes, quenched prenylated peptide cleavage fluorescence; calls only; 0.27% of 290,000 active; AID 2563;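 active = fall in fluorescence gain of 50% or more versus controls, with final raw signal at or below 3038400; inconclusive = same 50% fall but final raw signal above 3038400; inactive = fall in fluorescence gain under 50%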;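 also: plate controls were neutral control wells for no effect and wells lacking membranes for full effect; tested at 10 µM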
Target sequence (Q03530 whole entry, looked up): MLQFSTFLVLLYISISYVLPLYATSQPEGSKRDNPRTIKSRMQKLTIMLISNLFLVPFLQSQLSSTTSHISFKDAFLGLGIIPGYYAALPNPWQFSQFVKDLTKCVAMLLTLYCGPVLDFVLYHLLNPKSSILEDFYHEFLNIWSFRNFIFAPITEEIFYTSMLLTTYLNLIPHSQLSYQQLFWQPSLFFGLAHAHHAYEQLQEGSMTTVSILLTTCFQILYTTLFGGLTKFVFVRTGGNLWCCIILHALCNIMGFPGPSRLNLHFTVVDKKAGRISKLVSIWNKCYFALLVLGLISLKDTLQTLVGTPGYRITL
eIF4H inh retest: also measured in eIF4H inh; calls as there; inhibition, %; compound at 20 µM; confirmation average;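 mean of two retest wells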
PABP polyA inh retest: further read-out of PABP polyA inh, marked with its call; inhibition, %; compound at 20 µM; confirmation repeats;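 mean of two retest wells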
MT1-MMP act inh RFP: also measured in MT1-MMP act inh; calls as there; RFP signal change, %; measured here: RFP expression control read;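 0 = vehicle wells; hits needed this value within 50% of zero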
* marks the source's active call; other numbers are inactive results; i = inactive; u = inconclusive; x = no result given. Some of the compounds tested (hit frequency here may not be typical).

SMILES | PABP polyA inh | CSC inhib | HIV Env fusion | MT1-MMP act inh | MT1-MMP act inh RFP | Yeast UUG start | eIF4H inh | Rce1 inh | others
Cc1ccccc1N1CCN(Cc2cc3c(cc2[N+](=O)[O-])OCO3)CC1 | 20.6 | 11.0 | 6.1 | 0.0 | 0.6 | -8.4 | 21.9 | i
Nc1sc(-c2ccccc2)cc1-c1n[nH]c(=S)n1C1CCCCC1 | 0.4 | 59.5 | -136.5 | -7.4 | -17.6 | -14.1 | -4.0 | i
O=C(Nc1cc(Br)ccc1F)c1nc[nH]c1C(=O)NCc1ccccc1 | x | x | -149.8 | 5.0 | 1.1 | -17.8 | x | x
CC1(c2nnc(-c3cccc(Cl)c3)o2)CC(c2ccc(C#N)cc2)=NO1 (stereo not given) | x | -4.9 | -31.2 | -5.4 | -5.2 | -0.1 | x | i
CC(=O)Nc1ccc(S(=O)(=O)NCC(=O)NNC(=O)COc2c(C)cccc2C)cc1 | x | -5.7 | 4.5 | 2.7 | 4.6 | -3.8 | x | x
Cc1sc2nc(Cc3ccccc3)[nH]c(=O)c2c1-c1ccccc1 | -2.1 | 17.5 | -18.7 | 3.1 | 2.0 | x | 0.1 | i
O=C(NCCc1ccccc1)c1cc(S(=O)(=O)N2CCCC2)ccc1F | -0.2 | 8.4 | -2.4 | -0.8 | 2.6 | 13.1 | -1.0 | i
Cc1ccc(NC2=C/C(=N\S(=O)(=O)c3cccs3)c3ccccc3C2=O)c(C)c1 | -12.9 | -6.2 | x | 19.9 | -26.1 | -28.1 | -1.8 | i
COc1cccc(C(NC(C)=O)c2nc(-c3cnn(C)c3)cs2)c1 (stereo not given) | x | x | 12.8 | 7.3 | 10.4 | -30.2 | x | x
COC(=O)[C@H](Cc1ccccc1)NC(=O)NCc1ccccc1 | -7.2 | -5.4 | 8.8 | -1.3 | 2.3 | -7.6 | -0.3 | i
CCCN(Cc1ccccc1)C(=S)Nc1ccc(F)cc1 | -4.8 | 2.0 | 30.6 | -0.4 | -3.0 | x | -1.7 | i
CCOc1ccccc1NC(=O)Nc1cc(C(=O)O)ccc1C | -8.2 | x | 13.0 | 11.9 | 6.6 | x | 6.1 | i
O=C(NCc1nnc(SCc2ccc(C(F)(F)F)cc2)n1-c1ccccc1)C12CC3CC(CC(C3)C1)C2 | 9.4 | u | 18.8 | -7.8 | -8.7 | x | -11.6 | i
O=C(Nc1nc(-c2ccccc2)cs1)C1CCCO1 (stereo not given) | -5.7 | x | x | -2.8 | 0.0 | -9.4 | 4.3 | i
Cc1cc(Nc2ccc3c(c2)OCCO3)n2ncnc2n1 | 15.2 | -8.8 | -34.7 | 5.9 | 1.1 | -11.9 | 8.7 | i
Cc1ccc(S(=O)(=O)N2CCN(C(=S)NCCc3ccccc3)CC2)cc1 | -4.7 | 6.3 | 19.3 | 2.4 | 4.4 | -26.2 | -1.1 | i
COc1ccc(C2/C(=C(/O)c3ccc(F)cc3)C(=O)C(=O)N2CCCN(C)C)cc1 (stereo not given) | x | x | -1.6 | 2.5 | 2.9 | -4.9 | x | x
Cn1c(SCC(=O)NCc2cccs2)nnc1-c1ccco1 | -3.7 | x | 10.9 | 6.9 | 4.6 | -9.8 | -4.0 | i
COc1ccc(NC(=O)CN(C)C(=O)c2ccc(-c3ccccc3Cl)o2)cc1 | x | 0.6 | -5.3 | -5.7 | -1.8 | -10.6 | x | i
O=C(c1ccc(F)cc1F)N1CCN(c2ncccn2)CC1 | -3.9 | -6.4 | -30.2 | 0.5 | 3.4 | 1.1 | -4.1 | i
OCCSc1nc2ccccc2n1CCOc1ccccc1 | -4.2 | 1.1 | x | 0.4 | -4.2 | -11.7 | 0.9 | i
COc1cc(C2NC(=O)NC(c3ccccc3)=C2C(C)=O)ccc1OCC(=O)O (stereo not given) | 6.5 | -6.9 | -3.3 | 2.4 | 2.5 | -7.2 | -3.9 | i
Cn1cnc([N+](=O)[O-])c1SCC(=O)NN | 0.5 | -11.3 | 14.5 | -0.6 | 2.7 | x | -10.7 | i
CCOc1ccc(-n2c(=S)sc3c(=O)[nH]c(SCC(=O)C(C)(C)C)nc32)cc1 | -1.7 | 30.9 | 23.0 | 8.3 | -7.3 | -17.9 | -7.4 | i
COc1ccc(CN2CCCC(CO)(Cc3ccc(F)cc3)C2)cc1C (stereo not given) | -1.1 | 27.6 | 14.9 | 2.0 | 1.9 | -6.2 | -5.1 | i
COc1ccccc1NC(=O)C1CCN(C(=O)c2ccc(C(C)(C)C)cc2)CC1 | 10.3 | x | -4.9 | -0.2 | -3.7 | -8.4 | -7.6 | i
O=c1nc(-c2ccccc2)n(-c2ccc(Cl)cc2)[nH]1 | 31.5 | 16.1 | 9.4 | 1.6 | 6.0 | -2.2 | -2.2 | i
CC(C)(C)n1nc2c(c1NC(=O)c1cc3ccccc3o1)CSC2 | 7.6 | -6.8 | -3.3 | -9.9 | 0.9 | x | -1.7 | i
COc1ccc(-c2nc(CN3CCCCC3CCc3ccccn3)c(C)o2)cc1 (stereo not given) | 10.1 | -0.4 | 9.6 | -4.3 | -4.8 | 7.8 | -0.5 | i
COc1cc(-c2nc3ccc4ccccc4c3c3c2CCC3)ccc1O | 15.1 | 78.1* | x | -6.7 | -4.2 | 5.6 | 2.9 | i
CC1=CC(C)=Nc2ccccc2N1 | 21.3 | -2.2 | -64.3 | -1.0 | 6.2 | -21.8 | -3.4 | i
CCCCCCn1c(SCC(=O)OC)nc2c1c(=O)[nH]c(=O)n2C | -7.0 | -10.4 | 11.9 | 2.3 | 7.4 | -4.0 | -12.3 | i
COCCCNC(=S)N(CCCO)Cc1cc2cc3c(cc2[nH]c1=O)OCCO3 | 7.0 | 2.4 | -7.2 | -1.8 | 1.3 | -3.9 | -1.5 | i
O=C(NC1CCCC1)C(c1ccccc1F)N(C(=O)c1csnn1)c1ccccc1 (stereo not given) | 7.5 | x | 16.4 | -3.1 | -0.8 | -6.9 | -2.0 | i
O=C(CN1CCN(c2ccc(F)cc2)CC1)Nc1cc(C(F)(F)F)ccc1Cl | -7.0 | 0.9 | x | 8.0 | 2.3 | -14.0 | -4.7 | i
CCn1cc(C(=O)OCC(=O)NCc2ccc3c(c2)OCO3)c(=O)c2ccc(C)nc21 | 7.2 | -7.9 | -76.3 | 2.8 | -5.2 | -8.1 | -6.8 | i
O=C(O)C1C2C=CC(C3CC23)C1C(=O)N1CCc2ccccc21 (stereo not given) | -4.3 | -5.3 | -33.7 | -0.7 | 8.8 | -9.4 | -12.7 | i
O=C(Nc1ccccc1N1CCOCC1)c1ccco1 | 14.2 | -4.7 | 15.3 | -2.1 | 0.1 | x | 0.4 | i
CCN1C(=O)NC(c2cccnc2)C(C(=O)OC)=C1C (stereo not given) | 8.2 | -6.6 | x | -3.4 | 1.6 | -3.9 | -5.9 | i
O=C(c1ccco1)N1CCN(C(=O)C2c3ccccc3Oc3ccccc32)CC1 | 6.5 | -4.3 | x | -7.5 | -1.5 | x | -2.1 | i
Cc1cc(NC(=O)CSc2nc(-c3ccc(Cl)cc3)cs2)no1 | 10.9 | -2.7 | 37.2 | 4.8 | 0.0 | -13.6 | -9.1 | i
CCC1CCCCN1C(=S)NC(=O)c1cccc([N+](=O)[O-])c1 (stereo not given) | 4.3 | 6.8 | -51.0 | 3.9 | 5.1 | -25.6 | -19.0 | i
O=[N+]([O-])c1cccc(NC(=S)N2CCOCC2)c1 | -13.9 | -4.9 | 6.7 | 1.9 | 0.5 | x | -9.8 | i
CCCn1c(=O)c(C(=O)Nc2ncccc2O)c(O)c2ccccc21 | 1.2 | x | -3.6 | 3.1 | 1.6 | -7.2 | -0.5 | i
CCC(=O)c1ccc(OCC(O)CN(C)C2CCCCC2)cc1 (stereo not given) | 10.8 | 24.3 | x | -3.4 | 5.6 | -3.9 | 4.5 | i
O=C1OCC/C1=C\c1ccccc1O | -5.3 | x | -116.8 | -5.1 | -3.2 | -36.3 | 2.1 | i
Clc1ccc(C2=NNC(=NCc3ccc4c(c3)OCO4)SC2)cc1 | 3.6 | 20.2 | x | -7.4 | -10.1 | -6.2 | -3.0 | x
CC1(C(=O)NCc2ccccc2)CCC(=O)N1CC(F)(F)F (stereo not given) | x | x | -6.0 | 3.8 | 4.7 | -12.5 | x | x
O=C(CCN1CCN(c2ccccc2)CC1)Nc1ccc(OCc2ccccc2)cc1 | 5.8 | -9.0 | -3.8 | -3.4 | -4.7 | -2.7 | -1.1 | i
COc1ccc(C#CC2=CC(=O)CC(C)(C)C2)cc1 | x | x | 27.0 | -5.6 | -2.1 | -21.1 | x | x
CC(=O)NC(c1cccc(F)c1)c1nc(-c2ccc3ccccc3c2)cs1 (stereo not given) | x | x | 2.3 | 1.9 | -0.8 | -17.9 | x | x
Cc1ccc(-n2nc(C(=O)O)nc2-c2ccccc2)cc1 | 2.1 | 16.6 | x | -3.2 | 2.9 | -20.8 | -6.3 | i
COc1cc2cnc(-c3ccccc3)c(-c3ccc(C(F)(F)F)cc3)c2cc1OC | x | 7.5 | 84.4* | -2.3 | -5.3 | -13.5 | x | x
Cc1cc(C)cc(N(C(=O)c2ccco2)C(C(=O)NC2CCCC2)c2ccncc2)c1 (stereo not given) | 4.3 | x | -0.9 | 3.5 | 3.5 | -18.8 | 3.4 | i
COc1cccc(C(=O)N2CCCc3ccccc32)c1OC | x | x | 42.2 | 2.8 | 2.5 | 2.9 | x | x
COc1cc(SC#N)ccc1N=Cc1c(C)[nH]n(-c2ccc(C)cc2)c1=O | 18.8 | 84.4* | 20.4 | -10.0 | -10.3 | x | 4.8 | i
CCOC(=O)CCC(=O)NCc1ccc2c(c1)cc(C)n2C | 104.2* | -6.7 | -32.4 | 22.0 | 16.8 | 9.5 | 102.6 | i | eIF4H inh retest=45.1;PABP polyA inh retest=81.2*
C=CCn1c(SCc2nc3cc(C(=O)OC)ccc3c(=O)[nH]2)nc2sc(CC)cc2c1=O | 6.3 | -1.1 | 3.2 | 1.6 | -5.3 | 4.2 | -8.9 | i
O=C(Nc1nnc(COc2ccccc2)s1)Nc1ccccc1F | 5.8 | -4.7 | 6.8 | -0.9 | -1.1 | x | -5.6 | i
O=c1[nH][nH]c(-c2ccccc2)c1-c1ccccc1 | x | x | 33.1 | -0.3 | -1.3 | -14.5 | x | x
CN(C(=O)c1ccc2c(c1)OCO2)C1(C)CCS(=O)(=O)C1 (stereo not given) | x | -2.5 | 0.2 | 8.3 | 3.5 | -18.2 | x | i
CCCCN(C(=O)CC1CCCC1)c1c(N)n(CCCC)c(=O)[nH]c1=O | x | -14.5 | x | -1.7 | -2.7 | -3.4 | x | x
COc1ccc(-c2cc(C(=O)N/N=C/c3ccc(OC)c(COCC(F)(F)C(F)F)c3)c3ccccc3n2)c(OC)c1 | -5.3 | -11.1 | -19.7 | 5.4 | 1.8 | -8.7 | 3.5 | i

Ordered by number of heavy atoms (smallest number first): some entries from above.
SMILES | PABP polyA inh | CSC inhib | HIV Env fusion | MT1-MMP act inh | MT1-MMP act inh RFP | Yeast UUG start | eIF4H inh | Rce1 inh | others
O=c1[nH][nH]c(-c2ccccc2)c1-c1ccccc1 | x | x | 33.1 | -0.3 | -1.3 | -14.5 | x | x
Cc1ccc(-n2nc(C(=O)O)nc2-c2ccccc2)cc1 | 2.1 | 16.6 | x | -3.2 | 2.9 | -20.8 | -6.3 | i
CC1(C(=O)NCc2ccccc2)CCC(=O)N1CC(F)(F)F (stereo not given) | x | x | -6.0 | 3.8 | 4.7 | -12.5 | x | x
